Rango release inh = inhibition of RanGTP-driven Rango-importin beta dissociation. O95149+P62826. Biochemical FRET Rango-importin beta, RanGTP-induced dissociation. Potency, µM (titrated, usually from 46.1 µM), inactives show at the highest dose activity change, negative = inhibition. 340,000 tested, 0.071% active. AID 540253; active means falling FRET ratio curve, often poorly fitted, with flat reads before Ran was added; inconclusive means other falling curves, or compound fluorescence or quenching; inactive means flat or rising ratio curve;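 note: potency is the fitted concentration of half-maximal effect; % of control where 0% means no effect; nearly all actives have a fitted effect of over 45% in size; -100% = wells without RanGTP and RCC1; the record marks most hits as doubtful in a second field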
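Rango/importin beta premix (0.1/0.25 uM final), PBS + 1 mM DTT + 0.02% Tween-20 + 0.1% BSA; cpd 5 min RT; FRET pre-read; + RanGTP-RCC1 (0.6 uM Ran, 2 mM GTP, 0.2 uM RCC1); 45 min RT; FRET post-read, ex 430, em 486/530 nm.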
GLA inh pH 4.5 = alpha-galactosidase A (human) inhibition, pH 4.5. P06280. purified enzyme, 4-MU-alpha-Gal fluorescence, pH 4.5. activity change, negative = inhibition, % at 105 µM. 230,000 tested, under 10 active. AID 1467; inconclusive = small, poorly fitted or top-dose-only inhibition, or a rising curve; inactive = flat fitted curve, though single readings scatter; no compound was filed as active;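 note: 0% = full activity with enzyme and -100% = basal without enzyme; dose as in the result columns while the protocol names 77 µM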
Target sequence (P06280 whole entry, looked up): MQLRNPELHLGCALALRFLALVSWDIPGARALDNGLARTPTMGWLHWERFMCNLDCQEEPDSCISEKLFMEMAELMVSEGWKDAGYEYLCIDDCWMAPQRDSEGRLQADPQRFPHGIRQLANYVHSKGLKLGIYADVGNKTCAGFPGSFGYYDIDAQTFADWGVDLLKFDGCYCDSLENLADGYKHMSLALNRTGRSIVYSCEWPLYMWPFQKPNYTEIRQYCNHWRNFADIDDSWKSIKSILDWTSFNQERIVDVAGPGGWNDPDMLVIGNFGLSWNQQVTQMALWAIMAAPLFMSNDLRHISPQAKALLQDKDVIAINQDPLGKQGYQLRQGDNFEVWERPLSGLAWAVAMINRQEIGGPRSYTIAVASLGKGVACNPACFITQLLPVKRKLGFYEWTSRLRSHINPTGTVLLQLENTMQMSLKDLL
Rango-impB inh = prevents formation of the Rango-importin beta complex; Q14974; Rango CFP/YFP FRET sensor + importin beta, 45 min; Potency, µM (series often up to 92.2 µM), without a hit: at the highest dose inhibition of complex formation; 340,000 tested, 0.031% active; AID 540263; active = rising FRET ratio curve, often small or poorly fitted; inconclusive = mostly compound fluorescence or quenching in the first reads; inactive = flat curves in all reads;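 note: potency is the fitted concentration of half-maximal effect; 0% = DMSO wells and 100% = buffer wells lacking importin beta; nearly all actives have a fitted effect of over 15% in size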
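FRET biosensor (snurportin 1 IBB flanked by EYFP and cerulean), 50 nM, with compound 5 min, then 0.125 microM importin beta in PBS, 1 mM DTT, 0.02% Tween-20, 0.1% BSA. CFP/YFP ratio read after 45 min at room temperature; pre-read flags interference.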
miR-21 reporter = raises the signal of a miR-21 reporter; HeLa miR-21 FLuc reporter, luciferase, 48 h; Potency, µM (top dose mostly 38.3 µM), inactives show top-dose reporter change, positive = more light; 340,000 tested, under 10 active; active = well fitted rising curve with a large enough effect; inconclusive = small, poorly fitted or top-dose-only effect; inactive = no such curve, though single readings can be large or run the other way;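 note: % of control where 0% means no effect; miR-21 action dims this reporter so a rising signal means less miR-21 action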
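HeLa miR-21-FLuc reporter line, endogenous miR-21; 2000 cells/well in DMEM/10% FBS; compound titration up to ~40uM final, 48 h, 37 degree Celsius; luciferase detection reagent, 15 min lysis, CCD luminescence.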
* marks the source's active call; other numbers are inactive results; & = joins results of further samples.

CCCCn1c(SCC(=O)Nc2nnc(C)s2)nnc1-c1ccncc1 was read as Rango release inh 0.2%, GLA inh pH 4.5 3.4, Rango-impB inh -0.1% and miR-21 reporter -3.6%.
Fc1ccc(-c2nc3ccccc3c3nc4ccccc4n23)cc1 was read as Rango release inh -4.8%, GLA inh pH 4.5 5.7, Rango-impB inh 2.7% and miR-21 reporter -5.0%.
Screening CC1CCN(c2ccccc2NC(=O)c2ccc(F)cc2)CC1 returned Rango release inh 14.1%, GLA inh pH 4.5 2.8, Rango-impB inh 3.5% and miR-21 reporter -2.7%.
`CCOC(=O)c1ccc(NC(=O)NCc2ccn(CC)n2)cc1` gave Rango release inh -29.5%, GLA inh pH 4.5 2.2, Rango-impB inh 1.1% and miR-21 reporter -31.1%.
O=C(N/N=C\c1cccc([N+](=O)[O-])c1O)C1COc2ccccc2O1 (stereo unspecified) was read as Rango release inh 1.4%, GLA inh pH 4.5 -2.7, Rango-impB inh -2.7% and miR-21 reporter 4.6%.
Screening CNc1nc(-c2ccc(OC)cc2)c(-c2ccc(OC)cc2)s1 returned Rango release inh 17.7%, GLA inh pH 4.5 2.8, Rango-impB inh 2.1% and miR-21 reporter -10.1%.
`Cc1nc(NC(N)=S)sc1C(=O)Nc1ccccc1` gave Rango release inh 3.0%, GLA inh pH 4.5 -17.1, Rango-impB inh -2.1% and miR-21 reporter -11.0%.
For COc1ccc(-c2nnc3sc(-c4ccccc4OC)nn23)cc1 the results were Rango release inh 2.1%, GLA inh pH 4.5 4.0, Rango-impB inh -0.8% and miR-21 reporter -3.8%.
Cc1cc2nc(-c3cccnc3SCC(=O)NC3CC3)[nH]c2cc1C was read as GLA inh pH 4.5 8.3 and miR-21 reporter -40.8%.
`NS(=O)(=O)CCCc1ccccc1` gave Rango release inh -8.5%, Rango-impB inh -4.7% and miR-21 reporter -0.9%.
For C1CCC2(CC1)C1=C(CCCC1)Nc1nnnn12 the results were Rango release inh 1.3%, GLA inh pH 4.5 2.1, Rango-impB inh -0.4% and miR-21 reporter 6.7%.
For CC(=NCCCN(C)C)C1=C(O)c2ccccc2C1=O the results were Rango release inh -3.5%, GLA inh pH 4.5 -7.7, Rango-impB inh -0.8% and miR-21 reporter -9.4%.
Screening COc1ccc(N2C(=O)[C@H]3CCC=C[C@H]3[C@@H]2c2ccccc2Br)cc1 returned Rango release inh 32.4%, GLA inh pH 4.5 -12.7 and Rango-impB inh 3.3%.
For Cc1c(/C=N/NC(=O)c2cccnc2)c2ccccc2n1Cc1ccccc1 the results were Rango release inh -7.4%, GLA inh pH 4.5 3.4, Rango-impB inh -2.1% and miR-21 reporter 2.6%.
For Nc1cc(N)c2c(c1)C(=O)c1ccccc1-2 the results were Rango release inh -5.8% and Rango-impB inh 1.6%.
Screening CCCCn1c(=O)nc2n(-c3ccccc3)c3ccccc3cc-2c1=O returned Rango release inh inconclusive, GLA inh pH 4.5 -0.7, Rango-impB inh inconclusive and miR-21 reporter 2.7%.
Screening CCCC(=O)Nc1nnc(SCC(=O)Nc2nc(C)cs2)s1 returned Rango release inh -4.2%, Rango-impB inh -1.4% and miR-21 reporter -6.3%.
`COc1ccc(CN(C(=O)c2ccc(C)cc2)c2cccc(N)c2)cc1` gave Rango release inh 1.3% and Rango-impB inh 1.0%.
`CCC(C)[C@@H](N)C(=O)N/N=C/c1cccc2nccnc12` (stereo partly specified) gave Rango release inh 0.6%, GLA inh pH 4.5 -2.7, Rango-impB inh 4.4% and miR-21 reporter -1.0%.
`Cc1cccc(NCC(=O)c2c(N)n(C)c(=O)n(C)c2=O)c1C` gave Rango release inh 9.7%, GLA inh pH 4.5 -1.0, Rango-impB inh 4.6% and miR-21 reporter 1.8%.
`Cc1cc(=O)n2c(n1)NC(=NCc1ccccc1)NC2c1ccccc1` (stereo unspecified) gave Rango release inh -9.2%, GLA inh pH 4.5 -15.4, Rango-impB inh 1.6% and miR-21 reporter 7.9%.
Screening CCN(CC)S(=O)(=O)c1ccc(C(C)NC(=O)Cc2c[nH]c3ccccc23)cc1 (stereo unspecified) returned Rango release inh 8.8%, Rango-impB inh -3.3% and miR-21 reporter 2.8%.
O=C(CSc1ccccc1)Nc1ccc(S(=O)(=O)NCC2CCCO2)cc1 (stereo unspecified) was read as Rango release inh -4.8%, GLA inh pH 4.5 -4.2, Rango-impB inh -0.7% and miR-21 reporter -1.7%.
O=C(Nc1nncs1)c1cccc(S(=O)(=O)N2CCOCC2)c1 was read as Rango release inh 21.9%, GLA inh pH 4.5 3.7, Rango-impB inh 6.7% and miR-21 reporter -3.2%.
For C[C@@H](CC#N)CN1CC[C@H](C(C)(C)C)CCC1=O the results were Rango release inh -4.4%, Rango-impB inh 0.2% and miR-21 reporter 2.5%.
Screening CCn1c(SCC(=O)N(C)CC(=O)Nc2cccc(OC)c2)nnc1-c1ccco1 returned Rango release inh 3.1% and Rango-impB inh 7.5%.
Cn1c(=O)c(=O)n(C)c2cc(S(=O)(=O)N3CCN(c4ccccc4F)CC3)ccc21 was read as Rango release inh 19.4%, GLA inh pH 4.5 6.1, Rango-impB inh -1.9% and miR-21 reporter 5.9%&-4.3%.
For COC(=O)c1c(NC(=O)CN2CCN(c3ccccc3OC)CC2)c2cc(C)ccc2n1C the results were Rango release inh -12.0%, GLA inh pH 4.5 2.7, Rango-impB inh -2.9% and miR-21 reporter -1.7%.
O=S(=O)(CC(O)COc1ccccc1Cl)c1ccccc1 (stereo unspecified) was read as Rango release inh 21.5%, GLA inh pH 4.5 -1.1, Rango-impB inh -0.7% and miR-21 reporter -6.8%.
For Cc1ccc(-c2noc(CSc3nnc(-c4ccccc4)n3C)n2)cc1 the results were Rango release inh -21.8%, GLA inh pH 4.5 0.2, Rango-impB inh -2.9% and miR-21 reporter 3.7%.
`Cc1ccc(NC(=O)N2Cc3ccccc3CC2C(=O)NC(C)(C)C)cc1` (stereo unspecified) gave Rango release inh -17.4%, GLA inh pH 4.5 5.1, Rango-impB inh 1.3% and miR-21 reporter -11.6%.
For COc1ccc(Cl)cc1NC(=O)CSc1nnc(CNC(=O)c2cccs2)o1 the results were Rango release inh 31.1%, Rango-impB inh 3.0% and miR-21 reporter 2.2%.
Screening CC(C)Cc1ccc(CN2CCCC(NC(=O)CCN3CCCO3)C2)cc1 (stereo unspecified) returned Rango release inh 3.3%, Rango-impB inh -0.5% and miR-21 reporter -0.2%.
Screening Cc1ccc(C)c(NC(=S)N2CCC(NC(=O)c3ccc(F)cc3)CC2)c1 returned Rango release inh -11.7%, Rango-impB inh 0.0% and miR-21 reporter -3.7%.
For O=C(c1ccc(Cl)cc1Cl)N1CCc2ccccc21 the results were Rango release inh 17.9%, Rango-impB inh 0.6% and miR-21 reporter 6.9%.
`COC(=O)c1ccc(/C=N/NC(=O)CNc2cccc(C)c2)cc1` gave Rango release inh 1.0%, GLA inh pH 4.5 3.4, Rango-impB inh -3.5% and miR-21 reporter 4.1%.
For COc1ccc(S(N)(=O)=O)cc1C(=O)N1CCCC1 the results were Rango release inh -0.1%, GLA inh pH 4.5 0.5, Rango-impB inh -0.2% and miR-21 reporter -1.5%.
`COCCCn1c2nc3ccccc3nc2c2c(=O)n(Cc3ccccc3Cl)cnc21` gave GLA inh pH 4.5 3.7 and miR-21 reporter 2.1%.
COc1ccc(N2CC(C(=O)N[C@H](C(=O)NC(C)c3ccccc3)C(C)C)CC2=O)cc1 (stereo partly specified) was read as Rango release inh -10.8%, Rango-impB inh 1.6% and miR-21 reporter 0.3%.
`Cc1cccc(NC(=O)Cn2c(=O)oc3ccccc32)c1` gave Rango release inh 28.1%, GLA inh pH 4.5 0.0, Rango-impB inh 6.1% and miR-21 reporter -2.6%.
`CCO[C@@H]1OC(C(=O)NCc2ccccc2)=C[C@H](c2ccccc2)[C@H]1CCCO` gave Rango release inh 7.5%, GLA inh pH 4.5 3.0, Rango-impB inh -0.2% and miR-21 reporter 2.4%.
COc1cc(C(=O)Nc2ccc3c(c2)N(C(=O)CCN(C)C)c2ccccc2CC3)cc(OC)c1OC was read as Rango release inh 3.3%, GLA inh pH 4.5 -3.2, Rango-impB inh -1.9% and miR-21 reporter 2.2%.
O=C(NCCc1ccccc1)C1CCCN(C(=O)NC2CCCCC2)C1 (stereo unspecified) was read as Rango release inh -4.2%, GLA inh pH 4.5 -7.1, Rango-impB inh 1.1% and miR-21 reporter -4.8%.
Screening COc1ccc2nc(SCC(=O)NC3(C#N)CCCCC3)[nH]c2c1 returned Rango release inh 41.5% and Rango-impB inh 2.4%.
Screening COC(=O)c1ccc([C@H]2C=C(C(=O)O)O[C@@H](OCc3ccc(CO)cc3)C2)cc1 returned Rango release inh -16.7%, GLA inh pH 4.5 1.1, Rango-impB inh -0.1% and miR-21 reporter 3.5%.
`O=C(Cn1c(=O)oc2ccccc21)N1CCCCC1` gave Rango release inh 0.8%, GLA inh pH 4.5 -2.2, Rango-impB inh -5.3% and miR-21 reporter -4.7%.
COc1ccc(Cl)cc1NC(=O)CC(=O)Nc1cc(Cl)ccc1OC was read as Rango release inh -20.4%, Rango-impB inh -4.1% and miR-21 reporter 1.7%.
`O=C(COC(=O)C1CCCCC1)Nc1ccc([N+](=O)[O-])cc1` gave Rango release inh 27.4%, GLA inh pH 4.5 -1.2, Rango-impB inh -4.9% and miR-21 reporter -0.2%.
O=C(NC1CC(=O)c2sccc21)c1ccc(Cl)cc1Cl (stereo unspecified) was read as Rango release inh 20.2%, GLA inh pH 4.5 0.4, Rango-impB inh 7.7% and miR-21 reporter -72.8%.
Screening Cc1ccccc1NS(=O)(=O)c1cc(OCC(N)=O)c(C)cc1Cl returned Rango release inh -6.8%, GLA inh pH 4.5 1.9, Rango-impB inh -3.2% and miR-21 reporter 4.9%.
`COc1cc(C(=O)NCc2ccc3c(c2)cc(C)n3C)cc(OC)c1OC` gave Rango release inh inconclusive, GLA inh pH 4.5 2.8, Rango-impB inh inconclusive and miR-21 reporter 4.1%.
Screening COc1ccccc1C(=O)NCC(C)(C)CN=C1NS(=O)(=O)c2ccccc21 returned Rango release inh 0.4%, Rango-impB inh -3.0% and miR-21 reporter 16.4%.
O=C(COC(=O)c1ccccc1)NCc1ccco1 was read as Rango release inh -2.1%, GLA inh pH 4.5 5.5, Rango-impB inh -0.3% and miR-21 reporter -1.8%.
`Cc1onc(-c2ccccc2Cl)c1C(=O)N1CC(C)OC(C)C1` (stereo unspecified) gave Rango release inh 7.9%, GLA inh pH 4.5 0.3, Rango-impB inh -0.3% and miR-21 reporter -2.5%.
`CCCn1c(SCc2ccc(C(=O)OC)o2)nc2ccccc2c1=O` gave Rango release inh 6.1%, Rango-impB inh 2.4% and miR-21 reporter -14.5%.
Screening CC(CC(=O)O)C(=O)c1ccc(Cl)c([N+](=O)[O-])c1 (stereo unspecified) returned Rango release inh 10.3%, GLA inh pH 4.5 3.9, Rango-impB inh -1.1% and miR-21 reporter 1.0%.
O=C(Cn1c(=O)oc2ccccc21)N1CCN(c2ccccc2)CC1 was read as Rango release inh -19.9%, GLA inh pH 4.5 3.0, Rango-impB inh -3.7% and miR-21 reporter 0.0%.
Cc1cc(C)c(-c2csc(NC(=O)CCCc3nc4ccccc4c(=O)[nH]3)n2)c(C)c1 was read as Rango release inh 5.8% and Rango-impB inh -4.3%.
`COc1ccc(S(=O)(=O)N[C@@H](CC(C)C)C(=O)O)cc1` gave Rango release inh -7.9%, GLA inh pH 4.5 -8.7, Rango-impB inh 1.3% and miR-21 reporter -4.3%.
O=C(COC(=O)c1cnccn1)c1ccccc1 was read as Rango release inh 25.0%, GLA inh pH 4.5 -2.1, Rango-impB inh -4.4% and miR-21 reporter 1.1%.
For CCCCCCCCC(=O)O the results were Rango release inh -2.4% and Rango-impB inh 6.4%.
Screening O=C(Nc1nc(-c2ccc3c(c2)OCO3)cs1)C1COc2ccccc2O1 (stereo unspecified) returned Rango release inh 8.0%, GLA inh pH 4.5 -0.4, Rango-impB inh 3.9% and miR-21 reporter -10.5%.

Some of the compounds tested, so the mix of outcomes need not match the whole.
